# High-throughput results from PubChem BioAssay.
# H5N1 CPE: MDCK cell protection from H5N1 avian flu | cytopathic effect, luminescence, 72 h; active compounds read high; no value below 0 was filed and about half of the inactive calls have no number; reference of the scale not given here | actives 0.07% (n = 96,000) | inhibition, % at 50 µM; in the data active = inhibition above about 25%
# Starred values were filed as active, the others as inactive; i = inactive.
# A first look (3 entries):
SMILES,H5N1 CPE
O=C(NCCCN1CCOCC1)C1COc2ccccc2O1 (stereo not drawn),0.3
CCc1nn(CCCC(=O)N2CCc3ccccc3C2)c(=O)c2cc3occc3n12,1.2
CC(C)(C)n1nnnc1CN1CCC(NC(=O)NC2CCCCC2)CC1,1.0

# Main list, repeating the preview:
SMILES,H5N1 CPE
O=C(NCCCN1CCOCC1)C1COc2ccccc2O1 (stereo not drawn),0.3
CCc1nn(CCCC(=O)N2CCc3ccccc3C2)c(=O)c2cc3occc3n12,1.2
CC(C)(C)n1nnnc1CN1CCC(NC(=O)NC2CCCCC2)CC1,1.0
O=C1CC(=O)N(CCc2ccccc2)C(=O)N1CCc1ccccc1,0.9
c1cncc(-c2nnc(-c3ccco3)o2)c1,6.4
Cc1cc(C)n(-c2ccc(C(=O)OCC(=O)NCc3ccco3)cc2)n1,i
CCOC(=O)c1cccc(NC(=O)Cn2cnc3c2c(=O)n(C)c(=O)n3C)c1,0.8
Cc1ccc(C(=O)Nc2nnc(-c3ccc(C(C)(C)C)cc3)s2)cc1,0.5
CCOC(=O)N1CCN(c2c(Nc3cc(C)[nH]n3)c(=O)c2=O)CC1,0.3
CCN1CCN(c2ccc(NC(=O)C(C)C)cc2Cl)CC1,i
O=C(N/N=C/c1ccc(F)c(F)c1)c1cc2c(s1)-c1ccccc1CC2,0.1
Cc1ccc(NC2=C(C(=O)c3ccccc3)N(C)S(=O)(=O)c3ccccc32)cc1,0.2
O=C(CSc1nnc(COc2ccccc2)n1Cc1ccco1)NCc1ccco1,1.0
COc1ccc(/C(N)=N/OC(=O)c2cc(-c3ccccc3)nc3ccccc23)cc1,i
Cc1cccc(OCCSc2ncnc3nc[nH]c23)c1,1.6
CCCNCCC(c1ccco1)c1ccccc1OC (stereo not drawn),i
CC(=O)N(C)c1ccc(NC(=O)c2ccccc2C(=O)O)cc1,0.6
CC1CC(C)CN(CCCNC(=O)Cn2ncn3cccc3c2=O)C1 (stereo not drawn),0.3
CC1CC(C)CN(c2ncc3c(n2)CC(c2ccc(Cl)cc2)CC3=O)C1 (stereo not drawn),2.5
COC(=O)c1ccccc1NC(NC(=O)c1ccco1)C(=O)c1ccccc1 (stereo not drawn),i
COc1ccc(C2(NC(C)=O)CCN(C(=O)CCC(=O)O)CC2)cc1,0.1
COc1ccc(N(C(C)=O)S(=O)(=O)c2cc(OC)ccc2OC)cc1,0.9
O=C(Nc1ccc2c(c1)OCO2)c1ccc(Br)s1,i
Cc1nc(N2CCN(S(=O)(=O)c3ccccc3)CC2)c2c3c(sc2n1)CC(C)CC3 (stereo not drawn),1.1
Cn1c(=O)c2c(nc(Sc3ncccn3)n2Cc2ccc(Cl)cc2)n(C)c1=O,i
Cc1ccc(NC2=C(N3CCOCC3)C(=O)c3ccccc3C2=O)cc1,i
COc1cc2cc(C)nc(Cc3cccc4ccccc34)c2cc1OC,i
O=S(=O)(Nc1ccc(F)cc1)N1CCCCCC1,0.8
COc1ccccc1NC(=O)CCN1C(=O)C2CC=C(Cl)CC2C1=O (stereo not drawn),0.4
CCOc1ccc2c(=O)c(Oc3ccccc3OCC)coc2c1,0.1
O=C(O)CC1=C(O)C(=O)N(c2ccccc2)C1c1ccccc1 (stereo not drawn),0.2
COC(=O)CC1=C(C)C(=O)CC2C(C)(C)CCCC12C (stereo not drawn),1.0
CCOc1ccc(OCC)c(NC(=O)CN(C)S(=O)(=O)c2cccc3nsnc23)c1,1.9
CC(=O)N1CCN(c2nc(-c3ccco3)c3c(c2C#N)CC(C)(C)SC3)CC1,0.8
COc1cccc(C2C(C(=O)c3cc4ccccc4o3)=C(O)C(=O)N2c2cc(C)on2)c1OC (stereo not drawn),i
Cc1ccc(-c2cc(-c3ccccc3)[nH]c(=S)c2C#N)cc1,0.9
CC(C)CC(NS(=O)(=O)c1ccc2c(c1)oc(=O)n2C)C(=O)NCc1cccnc1 (stereo not drawn),0.3
COc1cc(C=O)cc(OC)c1OS(=O)(=O)c1ccc(NC(C)=O)cc1,0.2
CSc1nnc(-c2cc3c(-c4ccccc4)nn(C)c3s2)n1C,0.6
O=C(c1ccc(=O)[nH]c1)N(Cc1ccco1)C1(C(=O)NC2CCCCC2)CCCCC1,1.9
NC(=O)C1CCN(C(=O)CSc2nc3c(c(-c4ccccc4)n2)CCCC3)CC1,0.1
CN(Cc1cccs1)S(=O)(=O)c1cccs1,0.4
Cc1ccc(CN2C(=O)CCC2(C)C(=O)NCc2cccnc2)cc1 (stereo not drawn),1.3
CCC(C(=O)N1CCN(C(=O)c2ccco2)CC1)c1ccccc1 (stereo not drawn),0.3
COc1ccc(C)cc1NC(=O)CSc1nnc(-c2ccco2)n1Cc1ccco1,i
Cc1ccccc1Nc1nn2c(=O)c3ccccc3nc2s1,i
Cc1ccccc1NC(=O)Cc1nc(CSc2nnc(-c3ccc4c(c3)OCO4)o2)cs1,i
COC(=O)C1=CN(Cc2cccs2)C=C(C(=O)OC)C1c1cccc(OC)c1OC,i
CC(=O)N1Cc2ccccc2CC1C(=O)O (stereo not drawn),2.0
O=C(O)c1ccc(OCc2occc2C(=O)O)cc1,0.7

# Going on with the list:
SMILES,H5N1 CPE
O=c1cc(C2CCNCC2)[nH][nH]1,0.1
N#Cc1cnn2cc(-c3ncc(C(F)(F)F)cc3Cl)cnc12,i
C=CCn1c(SCC(=O)NCC(=O)OCC)nnc1-c1ccccn1,0.0
CCOC(=O)c1c(NC(=O)C(F)(OC)C(F)(F)F)sc2c1CCN(C)C2 (stereo not drawn),0.6
CCc1ccc(NC(=O)c2ccc3c(c2)C(=O)N(Cc2ccco2)C3=O)cc1,0.5
CCSc1nc(=O)n(-c2ccccc2)c(C)c1C(C)=O,0.2
O=C(COc1ccc(Cl)cc1)N1CCN(c2ncccn2)CC1,i
Cc1ccc(-c2nc3cc(N)ccc3o2)c(C)c1,i
Cc1c(C(=O)NCCc2ccccc2)oc2ccc(S(=O)(=O)N3CCC4(CC3)OCCO4)cc12,1.2
CC1=CC(C)C2C(=O)N(CCC[N+](C)(C)C)C(=O)C2C1 (stereo not drawn),i

# Exported with bars between the fields: four of the compounds above.
Structure | H5N1 CPE
C=CCn1c(SCC(=O)NCC(=O)OCC)nnc1-c1ccccn1 | 0.0
CCOC(=O)c1c(NC(=O)C(F)(OC)C(F)(F)F)sc2c1CCN(C)C2 (stereo not drawn) | 0.6
CCc1ccc(NC(=O)c2ccc3c(c2)C(=O)N(Cc2ccco2)C3=O)cc1 | 0.5
CCSc1nc(=O)n(-c2ccccc2)c(C)c1C(C)=O | 0.2

# The list goes on.
SMILES,H5N1 CPE
Cc1c(C(=O)N2CCOCC2)[nH]c2c1C(=O)CC(c1ccc(Cl)cc1)C2 (stereo not drawn),i
Cc1ccc(C(=O)Nc2nc3c(s2)CCCC3)o1,i
Cc1ccc(C)c2[nH]c(=O)c(CN(Cc3nnnn3C3CCCCC3)CC3CCCO3)cc12 (stereo not drawn),i
C=CCOc1ccc(CN(C)CC(=O)N(CC(C)C)c2c(N)n(CC(C)C)c(=O)[nH]c2=O)cc1,i
COc1cccc(-c2cc(C(F)(F)F)nc(NCc3ccco3)n2)c1,i
Cc1ccc2nc(-c3cccc(N)c3)oc2c1,i
O=C(Cc1cn2ccsc2n1)NCCc1ccc(F)cc1,i
CCc1ccc(OCC(=O)NCCN(C)C)c(Br)c1,0.1
O=C(Nc1ccc2nc3n(c(=O)c2c1)CCCCC3)c1ccccn1,2.5
O=[N+]([O-])c1ccc(N2CCN(CCOc3nonc3-c3ccccc3)CC2)c(Cl)c1,0.2

# 3 entries from above, sorted by length of the SMILES, smallest number first.
SMILES,H5N1 CPE
Cc1ccc2nc(-c3cccc(N)c3)oc2c1,i
CCc1ccc(OCC(=O)NCCN(C)C)c(Br)c1,0.1
Cc1ccc(C)c2[nH]c(=O)c(CN(Cc3nnnn3C3CCCCC3)CC3CCCO3)cc12 (stereo not drawn),i

# (next part)
SMILES,H5N1 CPE
COCCCNC(=O)C(Cc1ccccc1)NS(=O)(=O)c1ccc2c(c1)c(=O)n(C)c(=O)n2C (stereo not drawn),0.3
CCOc1ccc(C(C)=O)cc1COC(=O)C1=COCCO1,0.2
O=C(Nc1ccccc1O)c1cc(S(=O)(=O)N2CCOCC2)c(Cl)cc1Cl,0.8
CCOC(=O)c1ccc(NC(=O)CSc2nnc(-c3cccs3)n2C)cc1,i
COc1ccccc1NC=C1C(=O)OC2(CCCCC2)OC1=O,i
CC(C)CCCC(C)NS(=O)(=O)Cc1ccccc1 (stereo not drawn),i
Cc1nn(Cc2c(F)c(F)c(F)c(F)c2F)c(C)c1NC(=O)c1c([N+](=O)[O-])c(C)nn1C,i
[O-][n+]1c2ccc3nonc3c2nn1-c1ccccc1Cl,0.9
CC(C)=CCCC(C)CN(C)CCc1ccccn1 (stereo not drawn),i
C=CCn1c(SCC(=O)Nc2nccs2)nnc1-c1ccco1,0.5

# 6 successive entries out of the list so far, quoted:
SMILES,H5N1 CPE
COCCCNC(=O)C(Cc1ccccc1)NS(=O)(=O)c1ccc2c(c1)c(=O)n(C)c(=O)n2C (stereo not drawn),0.3
CCOc1ccc(C(C)=O)cc1COC(=O)C1=COCCO1,0.2
O=C(Nc1ccccc1O)c1cc(S(=O)(=O)N2CCOCC2)c(Cl)cc1Cl,0.8
CCOC(=O)c1ccc(NC(=O)CSc2nnc(-c3cccs3)n2C)cc1,i
COc1ccccc1NC=C1C(=O)OC2(CCCCC2)OC1=O,i
CC(C)CCCC(C)NS(=O)(=O)Cc1ccccc1 (stereo not drawn),i

# (next part)
SMILES,H5N1 CPE
Cc1ccc(NC(=O)CSCC#N)cc1,i
C=C(C)c1cccc(C(C)(C)NC(=O)NCC2CCCO2)c1 (stereo not drawn),i
COC(=O)C1=C(C)NC2=C(C(=O)CC(C)(C)C2)C1c1cn(Cc2ccc(Br)cc2)nc1-c1ccccc1 (stereo not drawn),i
COC(=O)c1sccc1NC(=O)c1csc(C)c1,17
CCCCOc1ccc(C(=O)NCC(=O)NCC(=O)OCC)cc1,0.2
O=c1cc(NC2CCCCCC2)[nH]c(=O)[nH]1,i
CCN(CC)C(=O)CSc1nnc(-c2ccco2)n1N,2.0
CCOc1ccc2nc(-c3ccc(OC)c(OC)c3)cc(C(=O)O)c2c1,1.3
CC(C)(C)c1nnc(NC(=O)NS(=O)(=O)c2ccccc2)s1,i
CCOC(=O)c1ccc(NC(=O)Cn2nnc(-c3ccccc3C)n2)cc1,i
COc1ccc(CNC(=O)COC(=O)c2n[nH]c3ccccc23)cc1,0.3
COc1cc2c3nnc(-c4ccc(F)cc4)c-3cn(Cc3ccccc3)c2cc1OC,i
Cc1cc(C(N)=O)c2ccccc2n1,i
CN1CCN(c2ccc([N+](=O)[O-])cc2/C=N/NC(=O)c2ccc(F)cc2)CC1,8.3
COc1cccc(-c2cc3nc4c(c(N5CCC6(CC5)OCCO6)n3n2)CCCC4)c1,i
CC(=O)Nc1ccc(S(=O)(=O)c2ccc(N)cc2)cc1,0.3
CCC(C(=O)OC)n1cnc2c(cnn2-c2ccc(Cl)cc2)c1=O (stereo not drawn),0.9
CC(=O)c1ccc(Sc2ccccc2)cc1,0.0
O=C(NCc1ccccc1F)c1ccc2c(c1)OCO2,i
COc1cc(OC)c(OC)cc1CN(C)CCc1ccccn1,i
O=C(CSc1nnnn1C1CCCCC1)Nc1cccc(NC(=O)c2ccco2)c1,i
Cc1noc(C)c1COC(=O)CN(C)S(=O)(=O)c1ccc(Cl)cc1,i
O=c1c2ccccc2nc2n1C(CSCc1ccccc1)CS2 (stereo not drawn),2.5
COc1cccc(C(=O)COC(=O)C(C)N2C(=O)c3ccccc3C2=O)c1 (stereo not drawn),0.4
Cc1csc2ncc(C(=O)N3CCCc4ccccc43)c(=O)n12,i
CCCC(=O)c1ccc2c(c1)OCCO2,i
O=C1CC(N2CCN(Cc3ccccc3)CC2)C(=O)N1CCc1ccccc1 (stereo not drawn),i
Cn1c(SCc2c(Cl)cccc2Cl)nnc1-c1cccs1,1.4
CNS(=O)(=O)c1ccc(Oc2ccc(S(=O)(=O)NC)cc2)cc1,0.1
CC(C)(C)NC(=O)Cn1nnc(-c2cccs2)n1,i
CCCc1nc(SCC(=O)N2CCCc3ccccc32)c2c(=O)n(C)c(=O)n(C)c2n1,1.6
COc1ccc2[nH]c(C)c(CCN3C(=O)C4CC=CCC4C3=O)c2c1 (stereo not drawn),1.0
Cn1c(SCC(=O)NCC2CCCO2)nnc1-c1c[nH]c2ccccc12 (stereo not drawn),2.6
CCOc1ccccc1C(=O)N(C)Cc1cc2cc(OC)ccc2[nH]c1=O,0.3
Cc1cc(O)c(C(C)C)cc1NC(=O)Cn1nc(C)c2ccccc2c1=O,0.4
CN(C)c1ccc(C(=S)N2CCCCCC2)cc1,1.2
Cc1occc1-c1nnc(SCC(=O)NC(C)(C)C)n1C(C)c1ccccc1 (stereo not drawn),0.9
CCOC(=O)N1CCN(CC(O)COCc2ccc(Cl)cc2)CC1 (stereo not drawn),i
COc1ccc(NC(=O)c2ccccc2F)cc1Cl,2.5
COc1ccc(S(=O)(=O)CCC(=O)NCCc2ccc(S(N)(=O)=O)cc2)cc1,i
Cn1c2c(c(=O)n(C)c1=O)C(c1cc3c(cc1Br)OCO3)CC(=O)N2 (stereo not drawn),i
O=C(COc1ccc(Cl)cc1)NCc1nnc(SCC(=O)Nc2ccc3c(c2)OCCO3)o1,i
Cc1cccc(C)c1Nc1nnc(SCC(=O)NCc2ccco2)s1,i
Cc1cccc2cc(CN(CCN3CCOCC3)C(=O)NCc3ccccc3)c(=O)[nH]c12,0.0
O=C(O)c1ccc2c(c1)C(=O)N(CCC1=CCCCC1)C2=O,1.1
Cc1ccc(NS(=O)(=O)c2cc(C(=O)NCCSc3ccc(C)cc3)ccc2C)cc1,11
O=C(Nc1nc(=O)c2ccccc2s1)c1ccccc1,0.9
Cc1ccc(SCC(=O)Nc2ccc(N3CCN(c4ccccc4)CC3)c(F)c2)cc1,i
CC(=O)N1CN(C2CCS(=O)(=O)C2)Cc2c1sc1c2CCCC1 (stereo not drawn),i
CN1C2CCC1CC(OC(=O)c1cc(Cl)cc(Cl)c1)C2 (stereo not drawn),i

# Going on with the list.
SMILES,H5N1 CPE
CC(C)CC(=O)Nc1nc(=S)ss1,0.7
CNC(=O)CSc1nnc(-c2cccc(S(=O)(=O)N3CCOCC3)c2)n1-c1ccc(F)cc1,1.8
Cc1cc(NC(=O)c2cnn3c(C(F)(F)F)cc(-c4ccccc4)nc23)no1,1.6
O=[N+]([O-])c1nn(-c2ccccc2)n(O)c1=NCc1ccc2c(c1)OCO2,i

# These rows are one share of the data; the hit share may differ from the screen's.
